Compound activity as filed in PubChem.
NPYLR7 ag: mosquito NPYLR7 agonism; activation, % at 10 µM; AID 1259423; 0.15% of 270,000 active; HEK293T NPYLR7/Galpha15, GCaMP6s calcium fluorescence; in the data active means activation above about 40%;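 further: 0% = vehicle and 100% = reference agonist at the receptor; some compounds past the cut are filed as inactive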
NPYLR7 ag max-min: further read-out of NPYLR7 ag, marked with its call; activation, %; measured here: Max-Min RFU normalised activation; some inactives read as strong as hits;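 span of the calcium signal over five minutes; 0% = vehicle and 100% = native peptide agonist; compound fluorescence can raise it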
An asterisk follows results filed as active; & = joins results of further samples.

Below each compound – NPYLR7 ag	NPYLR7 ag max-min
- COc1ccc(-c2nnc(-c3cc4cccc(OC)c4oc3=O)o2)cc1
  2	1
- CC(=O)Nc1cc(NC(=O)N(C)Cc2cccc3ccccc23)ccc1C
  5	6
- CCOC(=O)c1sc(NC(=O)C(C)(C)C)c(C(=O)OCC)c1C
  2	4
- Cc1ccc(-c2nn3nnnc3c3ccccc23)cc1C
  3	56
- N#CCCNC(=O)c1ccc(-c2cccc(C(F)(F)F)c2)s1
  2	-3
- CCc1cccc(C)c1NC(=O)c1ccccc1N(Cc1ccccc1)S(C)(=O)=O
  -2	-3
- O=C(c1ccc(CSc2cccs2)cc1)N1C2CCC1CC(Oc1cccc(C(F)(F)F)c1)C2 (stereo not given)
  -2	-10
- COC(=O)c1ccc(CN2CCC(CO)(Cc3cccc(OC)c3)CC2)cc1
  -3	-6
- CCc1nc2n(n1)C(=O)C(C(c1ccccc1F)N1CCOCC1)S2 (stereo not given)
  0	-4
- CC(=O)N1N=C(c2ccco2)OC1C(=O)NN1CCCC1 (stereo not given)
  26	19
- CC(=O)c1c(C)[nH]c(C(=O)O)c1C
  2	-1
- COc1cn(CC(=O)Nc2ccccc2C(F)(F)F)c(CSc2nc(C)cs2)cc1=O
  -8	-15
- CC(C)CNc1cccc(Cl)c1C(N)=O
  -15	-14
- CC(COc1ccc(F)cc1)NC(=O)N(C)Cc1ccc(C(F)(F)F)cc1 (stereo not given)
  5	3
- Cc1ccc(NC(=O)c2csc(COC(=O)c3ccccc3)n2)cc1
  -8	-17
- Cc1cnc2n(c1=O)C(CC(=O)NCc1cccnc1)CS2 (stereo not given)
  -1	-3
- Nc1nncn1C(=O)CCc1ccccc1
  -16	-24
- CCCCc1ccc(C2=N/C(=C\C=C\c3ccccc3)C(=O)O2)cc1
  -3	-5
- CC(=O)OC(C(=O)N1CCC(c2nc(-c3c(Cl)cccc3Cl)no2)CC1)c1ccccc1 (stereo not given)
  20	10
- O=S1(=O)N=C(CN2CCCc3cc(OC(F)(F)F)ccc32)Nc2ccccc21
  7	2
- O=C(c1ccc2c(c1)OCO2)N1CCc2c([nH]c3ccccc23)C1c1ccccc1F (stereo not given)
  7&-6	3&-8
- CCOc1ccc(-c2cc(C(=O)NC(Cc3ccccc3)c3ccccc3)c3ccccc3n2)cc1 (stereo not given)
  23	31
- Cc1ccc(C2=NC(=Cc3cccnc3)C(=O)O2)cc1
  3	2
- CCOC(=O)c1ccc(Cn2ccnc2-c2ccccc2OC)o1
  16	10
- CCCn1ccnc1CN1CCCC(O)(CN(C)C)CC1 (stereo not given)
  8	-3
- CCCCOc1ccc(-c2nc(C=Nc3ccc(Cl)cc3)c(O)o2)cc1
  -5	-13
- COc1ccc(OC)c(Cc2nnc(CCC(=O)NCCc3nc(C)c(C)s3)o2)c1
  2	0
- Cn1cc(C(=O)NCc2cccc(OCC(F)F)c2)ccc1=O
  9	5
- O=C(O)c1cccc(-n2c(C3CCC3)n[nH]c2=O)c1
  10	5
- CCc1cccc(C)c1NS(=O)(=O)c1cc(Br)ccc1OC
  4	-1
- c1ccc(-c2ncn(CC3CCOCC3)c2-c2ncc[nH]2)cc1
  -2	-7
- COC(=O)Nc1ccc(S(=O)(=O)Nc2cc(C(C)C)c(O)c(C(C)C)c2)cc1
  4	3
- COC(=O)c1ccc(CSc2ncc(CO)n2CC(N)=O)cc1
  5	1
- O=C(CNCC1CCCO1)N(Cc1ccccc1)Cc1ccco1 (stereo not given)
  0	6
- CCCNC(=O)N1CCc2cc(OC)c(OC)cc2C1CNC(=O)c1cccs1 (stereo not given)
  5	6
- Nc1[nH]c(=S)nc2sc3c(c12)CCCC3
  -1	-2
- Clc1ccnnc1N1CCCC2CCCCC21 (stereo not given)
  2	-2
- CC(C)N(Cc1cnn(C)c1)C(=O)c1cn(CCCc2ccccc2)nn1
  14	5
- COc1cccc(NC(=O)CN(c2ccc(C)cc2)S(=O)(=O)c2ccc(OC)c(OC)c2)c1
  2	11
- C=C(C)CN(C)Cc1ccc(C(=O)Nc2ccccc2Cl)cc1
  21	11
- Cc1ccc(C2=CCN(C(=O)CNC(=O)C3CCCCC3)CC2)cc1
  11	7
- CCC(C)NC(=O)c1cc(NC(=O)c2cc(OC)cc(OC)c2)ccc1N1CCc2ccccc2C1 (stereo not given)
  -3	-13
- CC(C)N(Cc1nnc(-c2ccccc2)o1)S(=O)(=O)c1ccc(Cl)c(Cl)c1
  0	24
- CC1CCC(c2cccn2C)N(C(=O)c2cc(S(=O)(=O)N(C)C)ccc2Cl)CC1 (stereo not given)
  4	1
- CCOC1CCCN(C(=O)c2ccccc2OC)C1 (stereo not given)
  -2	-2
- N#CCC(=O)N1CCOCC1
  2	0
- CC(=O)NC1CCC(NC(=O)[C@H]2CCCN2C(=O)COc2ccc(Cl)cc2)CC1 (stereo not given in full)
  26	34
- COc1cccc(CS(=O)CC2=CS(=O)(=O)C(Br)=C2)c1 (stereo not given)
  -6	-9
- CC(C)(C)C(=O)NCC(=O)N1CCN(c2ccccc2Cl)CC1
  -5	-6
- CN(Cc1ccc(F)cc1)Cn1nc(-c2cccc(S(=O)(=O)N3CCOCC3)c2)oc1=S
  3	6
- CCOC(=O)c1cn[nH]c1S(=O)(=O)Nc1c(C)cccc1C
  -5	-12
- Cc1cc(/C(=C\Nc2ccc(Cl)cc2)C(=O)Nc2ccc(Cl)cc2)on1
  -8	-13
- c1ccc(Cn2cc(CN3CCc4sccc4C3)c(-c3ccc4c(c3)OCO4)n2)cc1
  8	-1
- CC1(C)CCC(=O)NCC(C)(C)CC1
  -4	-4
- CCn1ncnc1C(C)NC(=O)c1csc2nc(-c3ccccc3F)cn12 (stereo not given)
  5	3
- O=C(c1cc2c(s1)CCCCC2)N1CC[C@H](O)[C@@H](O)C1
  8	7
- Cc1ccc(N2C(=O)CSC23CCN(C(=O)NC(C)(C)C)CC3)cc1
  6	3
- CCOC(=O)N1CCC(NCc2noc(-c3ccco3)n2)CC1
  6	4
- CCn1c(SCC(=O)c2cccc(F)c2)nnc1-c1ccccc1
  1	9
- CN(Cc1ccc2nccnc2c1)C(=O)CCN1Cc2ccccc2OC(c2ccccc2)C1 (stereo not given)
  18	0

Looked up by structure from above:
Below each compound – NPYLR7 ag	NPYLR7 ag max-min
- N#CCC(=O)N1CCOCC1
  2	0
- Cc1cc(/C(=C\Nc2ccc(Cl)cc2)C(=O)Nc2ccc(Cl)cc2)on1
  -8	-13
- c1ccc(Cn2cc(CN3CCc4sccc4C3)c(-c3ccc4c(c3)OCO4)n2)cc1
  8	-1

Next section:
Below each compound – NPYLR7 ag	NPYLR7 ag max-min
- COC(=O)CSc1nnc(-c2ccccc2C)n1C1CCCCC1
  4	9
- CCCCNC(=O)c1ccc2nc(C)c(N(CCOC)Cc3ccc(OC)cc3)n2c1
  -8	-12
- CC1CCN(C(=O)C(C)Sc2nnc3c(Cl)cc(Cl)cn23)CC1 (stereo not given)
  1	27
- C=CCn1c(SCC(=O)OC)nc2c1c(=O)n(C)c(=O)n2C
  23	11
- CN(CC1CCN(c2ccccc2)C1)C(=O)c1c(O)cccc1O (stereo not given)
  -8	-11
- CCOC(=O)c1c(NC(=O)CC(=O)OC)sc2c1CCC(C#N)(c1ccccc1)C2 (stereo not given)
  5	1
- Cc1cc(C2Nc3ccccc3-c3nc4ccccc4n32)c(C)n1C1CC1 (stereo not given)
  5	4
- C=Cc1ccc(CSc2nc3ncccc3[nH]2)cc1
  5	3
- N#Cc1cccc(CN2CCN3C(C(=O)Nc4ccc(-n5cccn5)cc4)=COC3=NC2=O)c1
  -1	-4
- CN(C)C(=O)c1ccc(Cn2cc(C(=O)NCc3cccc(C(F)(F)F)c3)sc2=O)cc1
  3	1
- Cc1ccc(CN(CCc2ccccc2)C(=O)CN(CCN2CCCC2)C(=O)c2ccccc2C)o1
  0	10
- CN(Cc1cnn(-c2ccccc2)c1)C(=O)CCl
  -14	-15
- COC(=O)c1ccc(CN2CCCC(C(=O)Nc3cccc(-n4cccn4)c3)C2)cc1 (stereo not given)
  9&16	6&7
- Cc1c(-n2c(O)c(C3=c4ccccc4=NC3=O)sc2=S)c(=O)n(-c2ccccc2)n1C
  -3	-7
- Cn1cc(CCC(=O)NC2CC(=O)N(CCc3ccccc3)C2)cn1 (stereo not given)
  3	3
- CC1(C)C2CCC1(C)C(NC(=O)c1cc(F)cc3[nH]cnc13)C2 (stereo not given)
  2	2
- COc1ccc2nc(N(CCCN3CCOCC3)C(=O)c3ccc(Cl)s3)sc2c1
  1	-1
- Cc1cc(N2CCOCC2)c2nncn2n1
  5	-2
- Cc1cccc(N2CCN(c3nc4nonc4nc3N3CCOCC3)CC2)n1
  4	5
- Cc1ccc2c(n1)OC(CN1CCOCC1)CN(c1ccccc1)C2=O (stereo not given)
  -4	5
- Cc1ncc(-c2ccc(F)cc2Cl)[nH]1
  1	1
- COc1cc(C(=O)N2CCC(n3c(=O)oc4cccc(C)c43)CC2)cc(Cl)n1
  28	32
- CCc1cc2c(N3CCOCC3)nc(C(C)C)nc2s1
  2	3
- Cc1ccc(CN2CCN(Cc3cccn3-c3nccs3)CC2CCO)o1 (stereo not given)
  11	-2
- O=C(NCCc1c[nH]c2ccccc12)c1cn(Cc2ccccc2Cl)nn1
  22	9
- COc1cc(OC)cc(-c2cccc(C(C)N(C)C)c2)c1 (stereo not given)
  19	14
- COc1ccccc1OCC1CN(C(=O)c2cnc(C)cn2)CCO1 (stereo not given)
  -2	4
- CNC(=O)Cn1cnc2c(-c3ccccc3)nsc2c1=O
  -4	-3
- Cc1ccccc1-n1c(SCC(=O)N2CCOCC2)nnc1-c1ccc(F)cc1
  8	15
- CC1(C)Oc2ccc3ccc(=O)oc3c2-c2cn[nH]c21
  8	5

Among those listed so far, these have a tert-butyl group:
Below each compound – NPYLR7 ag	NPYLR7 ag max-min
- CCOC(=O)c1sc(NC(=O)C(C)(C)C)c(C(=O)OCC)c1C
  2	4
- CC(C)(C)C(=O)NCC(=O)N1CCN(c2ccccc2Cl)CC1
  -5	-6
- Cc1ccc(N2C(=O)CSC23CCN(C(=O)NC(C)(C)C)CC3)cc1
  6	3

Continued:
Below each compound – NPYLR7 ag	NPYLR7 ag max-min
- COCCOc1nc(-c2cccc(OC)c2)n(-c2ccc(NC(=O)c3ccc(C(F)(F)F)cc3)cc2)n1
  5	12
- Cc1ccc(NC(=O)c2cc(-c3ccccc3Cl)nc3ccccc23)nc1
  39	17
- O=C(O)C1CC2(CCNCC2)CN1Cc1ccccc1OCCO (stereo not given)
  1	4
- C=CCNC(=O)NC(=O)Cn1nnc(-c2cccs2)n1
  1	7
- O=C1NC(=O)C(CC(=O)N2CCN(c3nccc(-c4ccc(Oc5ccccc5)cc4)n3)CC2)N1 (stereo not given)
  31	30
- S=c1[nH]cc(-c2ccc(Cl)cc2)o1
  5	3
- COc1cccc(-n2c(SCC(=O)Nc3cc(C)cc(C)c3)nc3c(c2=O)SCC3)c1
  -4	-8
- CN1CCCC(CN(CCc2ccccc2)C(=O)c2cccc(Cl)c2)C1 (stereo not given)
  2	-2
- COc1cc2c(cc1OC)C(c1c(F)cccc1Cl)N(C(=O)c1ccccc1C(F)(F)F)CC2 (stereo not given)
  16	3
- O=S(=O)(NCc1ccccc1)c1cccc2nonc12
  0	-2
- CN(CC(=O)NCc1ccccn1)C(=O)c1cc(-c2ccc(Cl)cc2Cl)on1
  5	3
- O=C(Nc1ccc(N2CCN(C(=O)c3cc(F)ccc3Cl)CC2)nc1)c1ccc(F)cc1
  2	-2
- CCSc1ccc(Cl)cc1NCC(=O)NC(N)=O
  9	6
- C=CCCC(O)CN(CCOC)CC(=O)N1CCc2sccc2C1COc1ccc(Cl)cc1 (stereo not given)
  4	13
- Cc1ccc2[nH]cc(CN(C)Cc3ncccc3C)c2c1
  6	-2
- Cc1noc(CNc2cc(C(F)(F)F)ccc2N2CCCC2)n1
  4	6
- CCOC(=O)C1CCCN(C(=O)c2nn(-c3ccccc3)c(=O)n(Cc3cccc(C(F)(F)F)c3)c2=O)C1 (stereo not given)
  2	4
- COc1ccc(C2CC(c3ccc(Br)cc3)=Nc3ncnn32)c(OC)c1 (stereo not given)
  6	3
- COc1ccc(-c2nnc(SCC(=O)N/N=C(/C)c3cccs3)n2-c2ccccc2)cc1OC
  -12	-17
- CC1(C)CN(C(=O)CCc2ccccc2)CC(=O)N(CC(O)COC(C)(C)C)C1 (stereo not given)
  -3	-4
- O=C(c1conc1-c1ccccc1)N1CC(c2cccnc2)C1
  19	15
- COc1ccc([N+](=O)[O-])cc1NC(=O)c1cc2ccccc2o1
  11	1
- CSc1nc(C)c(CCC(=O)Nc2ccccc2Cl)c(=O)[nH]1
  2	9
- COC(=O)Cn1c(=NC(=O)C2=COCCO2)sc2cc(S(C)(=O)=O)ccc21
  1	2
- COCCCN(CC(=O)N1CCc2sccc2C1COc1ccccc1OC)C(=O)c1cccc(OC)c1 (stereo not given)
  -1	4
- CC(C)(C)n1ncc2c(=O)n(NC(=O)c3ccc(Cl)cc3)cnc21
  3	0
- Cc1cc(OCC2CN(C(=O)Cc3c(F)ccc(C)c3F)CCO2)ccc1Cl (stereo not given)
  17	21
- CC(C)n1cnnc1CCNC(=O)c1nc2ccc(F)cc2[nH]1
  0	-2
- CC(C)Nc1nnc(Sc2ncccc2C#N)s1
  -2&-4	-3&-4
- Cn1c(=O)c2c(SCC(=O)Nc3cccc4ccccc34)nc(C3CC3)nc2n(C)c1=O
  7	10
- CNCc1cc(-c2ccc(C)c3ncccc23)ccc1OC
  7	-4
- CC(C)Cn1cncc1CNC(=O)CC1C(=O)NCCN1C1CCCC1 (stereo not given)
  6	4
- COc1ccccc1-c1nc(NC(=O)c2cnc(C(C)(C)C)s2)n[nH]1
  13	9

These rows are one share of the data; rates above refer to the full screens.
